# PKD1 inh – PKD1 (human) kinase inhibition | Q15139 | PKD1 kinase fluorescence polarization assay | inhibition, %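 (about 10 µM by stock and volumes)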 | actives 0.056% (n = 200,000);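 active means inhibition of 50% or more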;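 further: controls were vehicle for no effect and a reference inhibitor for full effect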
# GALR2 ag – GALR2 (human) receptor agonism; O43603; GALR2-expressing cells, agonist activation read-out; activation, %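 (tested at 5 µM)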; actives 0.48% (n = 140,000);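 active means above mean plus 3 SD of all compounds, about 5% in these data, not always enough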;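 further: 0% = vehicle buffer wells and 100% = reference agonist at full effect; tested in CHO reporter cells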
# Target sequence (O43603 whole entry, looked up): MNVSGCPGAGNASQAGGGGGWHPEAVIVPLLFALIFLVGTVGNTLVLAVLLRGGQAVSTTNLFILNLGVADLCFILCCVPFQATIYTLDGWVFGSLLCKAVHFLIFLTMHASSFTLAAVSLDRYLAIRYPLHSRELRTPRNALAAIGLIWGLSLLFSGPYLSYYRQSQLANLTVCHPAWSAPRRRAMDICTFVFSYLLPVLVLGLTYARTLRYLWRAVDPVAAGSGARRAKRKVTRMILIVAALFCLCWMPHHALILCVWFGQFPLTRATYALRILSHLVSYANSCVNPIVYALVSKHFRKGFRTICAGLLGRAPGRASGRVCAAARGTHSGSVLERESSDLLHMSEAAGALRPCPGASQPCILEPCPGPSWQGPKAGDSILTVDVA
# RGS16-Gao – modulates binding between human RGS16 and Galphao. binding response (% of control), % at 10 µM. O15492+P09471. bead-based flow cytometry RGS16-Galphao binding, fluorescence; actives lie on both sides. AID 1441. actives 0.38% (n = 220,000);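 active means below 25% or above 175%, edge rows of some plates excepted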;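 further: Galphao activated by GDP with aluminum fluoride before binding; 100% = wells without compound and 0% = beads without RGS; some results beyond the cut were filed as inactive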
# Target sequence (O15492 whole entry, looked up): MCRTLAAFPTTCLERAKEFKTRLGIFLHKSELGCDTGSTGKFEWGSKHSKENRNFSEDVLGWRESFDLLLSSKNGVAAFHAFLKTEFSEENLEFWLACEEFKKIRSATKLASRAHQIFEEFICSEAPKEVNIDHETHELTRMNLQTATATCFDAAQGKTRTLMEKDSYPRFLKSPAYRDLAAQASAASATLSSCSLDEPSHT
# Target sequence (P09471 whole entry, looked up): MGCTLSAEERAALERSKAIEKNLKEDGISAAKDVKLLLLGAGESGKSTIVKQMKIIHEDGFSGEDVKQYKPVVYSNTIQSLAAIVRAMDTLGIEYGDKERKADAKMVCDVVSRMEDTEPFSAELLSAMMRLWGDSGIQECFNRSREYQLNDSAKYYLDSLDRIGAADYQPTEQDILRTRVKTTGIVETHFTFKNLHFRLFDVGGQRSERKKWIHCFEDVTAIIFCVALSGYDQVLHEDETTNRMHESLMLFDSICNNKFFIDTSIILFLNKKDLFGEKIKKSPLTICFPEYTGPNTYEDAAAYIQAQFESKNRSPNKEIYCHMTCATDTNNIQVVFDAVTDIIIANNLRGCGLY
# HSV replic up – increases HSV replication in cells; HSV replication augmentation in cells, fold increase; maximum fold increase; actives 0.005% (n = 220,000);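 active means peak rise of 1.5-fold or more in the series; tested in PC3 cells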;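 further: first round at 10 µM; read as green reporter fluorescence; hits show the peak of a series up to 25 µM; 1 = signal of infected wells without compound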
# INS promoter inh – TRM-6 insulin promoter activity inhibition; actives 0.9% (n = 130,000); AID 1273; TRM-6 cells (human fetal islet line), insulin promoter-eGFP reporter, imaging; reporter expression induced with tamoxifen; inhibition, % at 2 µM;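 active means inhibition above the mean plus 3 SD, with well images judged a real hit on visual review, cut at about 60% in these data, passing the limit was not always enough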
# INS promoter inh cell count – recorded beside INS promoter inh, whose call it bears; normalized cell count, %; measured here: cell count, toxicity; reference of the scale not given here;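 cells exposed to compound for 48 h; stained nuclei by imaging scaled within each plate; lower means fewer cells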
# HSV replic up primary fold – also measured in HSV replic up; calls as there; fold increase; compound at 10 µM; measured here: primary screen fold increase 10 uM; tested in PC3 cells;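 GFP signal in the first replicate; 1 = infected wells without compound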
# Starred values were filed as active, the others as inactive; i = inactive; / = no result given.
SMILES,PKD1 inh,GALR2 ag,RGS16-Gao,HSV replic up,HSV replic up primary fold,INS promoter inh,INS promoter inh cell count
CCCCC(CC)C(=O)NCCCN1CCN(CCCNC(=O)C(CC)CCCC)CC1 (configuration not stated),1.4,-0.9,104.5,i,0.9,34.6,81.3
N/C(=N\OC(=O)c1ccc(Cl)c(Cl)c1)c1cccnc1,-11.4,-1.4,108.0,i,1.04,4.2,74.0
CC1Cc2ccccc2N1C(=O)CSc1nnnn1C1CCCC1 (configuration not stated),-3.9,-2.3,118.5,/,/,20.0,81.3
S=c1nc(-c2ccccc2)oc2c1CCCC2,-5.1,-1.5,97.2,/,/,-70.0,146.4
c1ccc(-c2nnc3n2NC(c2ccc4c(c2)OCO4)S3)cc1 (configuration not stated),-3.3,-2.0,29.9,i,0.99,-48.8,84.5
CCN(CC)S(=O)(=O)c1cc(C(=O)NC2=NCCS2)ccc1Cl,-1.2,-0.3,91.6,i,0.987,-20.0,129.7
COc1cc(OC)cc(C(=O)Nc2ccccc2N2CCOCC2)c1,-5.7,-0.6,99.6,i,1.14,/,/
O=C(Cn1nnc(N2CCCCC2)n1)c1ccc(Cl)c(Cl)c1,/,/,94.7,i,1.07,/,/
CCC(C)(C)n1nnnc1CN(Cc1ccc(Cl)cc1)Cc1ccco1,-7.3,-0.6,103.3,/,/,/,/
COc1ccc(OC)c(NC(=O)COC(=O)c2cc3c(s2)CCC3)c1,-1.1,/,98.0,i,0.91,25.0,153.2
O=C(OC(C(=O)NC1CCCC1)c1ccccn1)c1cccs1 (configuration not stated),-10.5,-1.6,97.6,i,0.93,27.0,125.5
COc1ccc(N2C(N)=C(C#N)C(c3ccsc3)C3=C2CCCC3=O)c(OC)c1 (configuration not stated),-4.2,-0.7,73.8,i,1.04,-107.7,67.1
CCOc1cc(S(=O)(=O)N2CCCCCC2)ccc1F,4.0,-0.5,97.4,i,1.04,11.4,127.2
Cn1c(CC(=O)NC(C)(C)CO)c(Sc2ccccc2)c2ccccc21,-9.4,0.9,96.8,i,1.06,-19.4,101.3
CC(=O)N1CCN(C(=S)Nc2cc(S(=O)(=O)N3CCOCC3)ccc2Cl)CC1,7.0,/,94.3,i,0.98,-60.0,97.9
Cc1ccc(-c2csc(NC(=O)C3=NN(c4ccccc4)C(=O)CC3)n2)cc1,-2.3,-0.6,106.8,i,0.89,-23.3,97.5
COc1cc2c(cc1OC)C(C)N(C(=O)c1cc3c(=O)oc4ccc(C)cc4c3s1)CC2 (configuration not stated),-7.8,1.6,101.2,/,/,-25.0,76.4
Cn1c(SCc2c(F)cccc2Cl)nnc1-c1cnccn1,-3.7,-1.8,-140.1,i,0.92,22.6,66.1
O=C(CCn1c(=O)oc2ccccc21)N(Cc1ccccc1)c1ccccn1,-3.3,-1.8,105.9,i,0.99,-42.9,101.6
CCOC(=O)c1c(NC(=O)C[n+]2ccccc2)sc2c1CCCC2,-0.1,/,99.2,i,0.86,/,/
O=C(c1cc2nc(-c3ccccc3)cc(-c3ccccc3)n2n1)N1CCN(C(=O)c2ccco2)CC1,0.8,2.2,98.5,i,0.8,0.0,151.3
Cc1ccccc1Cn1c(Cc2ccccc2)nc2ccccc21,3.4,-2.0,97.7,i,0.88,30.8,97.7
COc1cccc(CNC(=O)CN2C(=O)CC(c3ccccc3)=Nc3ccccc32)c1,1.4,/,110.1,i,0.9,/,/
CC(CSc1nc2ccccc2s1)Cn1c(N2CCCC2)nc2c1c(=O)[nH]c(=O)n2C (configuration not stated),1.5,0.0,103.0,i,0.86,/,/

# Complete entries as entered above:
# Entry for `CCOC(=O)c1c(NC(=O)C[n+]2ccccc2)sc2c1CCCC2` → PKD1 inh = -0.1; GALR2 ag = /; RGS16-Gao = 99.2; HSV replic up = i; HSV replic up primary fold = 0.86; INS promoter inh = /; INS promoter inh cell count = /
# Entry for `O=C(c1cc2nc(-c3ccccc3)cc(-c3ccccc3)n2n1)N1CCN(C(=O)c2ccco2)CC1` → PKD1 inh = 0.8; GALR2 ag = 2.2; RGS16-Gao = 98.5; HSV replic up = i; HSV replic up primary fold = 0.8; INS promoter inh = 0.0; INS promoter inh cell count = 151.3

# (listing goes on)
SMILES,PKD1 inh,GALR2 ag,RGS16-Gao,HSV replic up,HSV replic up primary fold,INS promoter inh,INS promoter inh cell count
O=C(CCn1c(=S)oc2ccccc21)Nc1ccc2c(c1)OCCO2,-11.7,-2.0,102.1,i,1,-34.4,119.6
O=C(Cn1cccc1C(=O)c1ccccc1)NCc1ccccn1,-8.9,-0.9,98.1,i,0.97,-38.9,66.8
CC(=O)N1CCc2cc(S(=O)(=O)Nc3ccccc3N3CCN(C)CC3)ccc21,-11.6,-1.4,129.4,i,0.99,/,/
COc1cc(C(F)(F)F)c(C(=O)N(C)Cc2ccc(Cl)c(Cl)c2)cn1,/,/,96.8,i,1.06,/,/
CCOC(=O)c1oc2ccccc2c1NC(=O)c1cccs1,-11.1,-1.5,95.9,i,0.93,24.2,123.0
O=C(Nc1nc2ccccc2s1)c1ccc(Cl)s1,8.9,-4.4,102.1,i,0.96,/,/
CN1Cc2c(N3CCOCC3)nc3sc(C(=O)c4ccccc4)c(N)c3c2CC1(C)C,/,/,99.7,i,0.69,/,/
CCOc1cc(/C=N/NC(=O)c2nn(C)cc2Br)ccc1OCc1ccccc1Cl,1.4,0.0,103.5,i,0.9,0.0,92.0
O=C(Nc1ccccc1C(=O)NC(Cc1ccccc1)C(=O)O)c1ccccc1 (configuration not stated),6.0,/,100.1,i,0.93,11.8,106.4
COc1ccc(/C=C\c2onc(C)c2S(=O)(=O)N2CCC(C(=O)NCc3ccco3)CC2)cc1,/,/,97.8,i,0.93,/,/
Cc1nc2ccccc2cc1C(=O)N/N=C/c1ccccc1[N+](=O)[O-],1.2,-0.9,113.8,/,/,-25.0,77.8
CCOC(=O)c1c(NC(=O)c2c(Br)cnn2CC)sc(C)c1C,-3.4,-1.0,99.8,i,0.95,-25.0,141.5

# 7 of the entries above in order of the GALR2 ag value, ascending.
compound,GALR2 ag
O=C(Nc1nc2ccccc2s1)c1ccc(Cl)s1,-4.4
O=C(CCn1c(=S)oc2ccccc21)Nc1ccc2c(c1)OCCO2,-2.0
CCOC(=O)c1oc2ccccc2c1NC(=O)c1cccs1,-1.5
CC(=O)N1CCc2cc(S(=O)(=O)Nc3ccccc3N3CCN(C)CC3)ccc21,-1.4
CCOC(=O)c1c(NC(=O)c2c(Br)cnn2CC)sc(C)c1C,-1.0
Cc1nc2ccccc2cc1C(=O)N/N=C/c1ccccc1[N+](=O)[O-],-0.9
CCOc1cc(/C=N/NC(=O)c2nn(C)cc2Br)ccc1OCc1ccccc1Cl,0.0

# (more compounds)
SMILES,PKD1 inh,GALR2 ag,RGS16-Gao,HSV replic up,HSV replic up primary fold,INS promoter inh,INS promoter inh cell count
CC(CNC(=O)c1ccc(Br)o1)NC(=O)c1ccc(Br)o1 (configuration not stated),-2.3,-0.9,102.0,i,0.917,-9.7,98.4
Cc1ccc(C)c(NC(=O)CN(C)C(=O)c2cc3ccccc3o2)c1,-4.0,/,110.2,i,0.91,-63.6,138.1
COc1cc(/C=C/C(=O)NCC(=O)N2CCC(N(C)CCN3CCOCC3)CC2)ccc1OC(C)C,-2.8,/,100.3,i,0.96,-16.7,114.5
CCc1ccc(NC(=O)CSc2nnc(COc3ccc4c(c3)CCCC4)o2)cc1,-4.4,0.3,81.5,i,0.97,-19.4,123.8
Cc1ccc(C(=O)CNc2nc3c(c(=O)[nH]c(=O)n3C)n2Cc2ccccc2)cc1,3.8,0.4,102.6,i,0.89,/,/
CCCNC(=O)CN(Cc1ccccc1F)S(=O)(=O)c1ccc(C)cc1,-6.3,-1.0,117.9,i,0.97,-39.3,85.2
CC(C)(C)N1CC(OC(N)=O)C1,/,/,101.5,i,1,/,/
Cc1ccc(Oc2nc(C(F)(F)F)nc3ccccc23)cc1,-4.5,-1.8,97.9,i,0.97,12.5,82.9
O=C(O)CCCNS(=O)(=O)Cc1ccccc1,-0.8,-0.8,131.1,i,0.99,-22.2,83.8
O=C(COC(=O)c1cccc(O)c1)NCc1ccc2c(c1)OCO2,/,/,103.2,i,1,/,/
COc1ccc(N(C(=O)CNC(=O)c2cccs2)C(C(=O)NC2CCCC2)c2cccnc2)cc1 (configuration not stated),-3.0,/,93.4,i,1.06,/,/
CC(CN1CCOCC1)OC(=O)COc1ccc(F)cc1 (configuration not stated),-2.2,-2.1,60.5,i,1,/,/
CCn1c(CSCc2ccc(F)cc2)nnc1SCC(=O)N1CCN(c2ccccc2)CC1,3.6,-1.3,100.5,i,1.07,-94.6,46.3
N#C/C(C(=O)NCc1ccccc1)=C1\SC(CCO)C(=O)N1c1ccccc1 (configuration not stated),6.2,-1.9,101.8,i,0.947,/,/
Cc1ccc(-c2nc3c(c(=O)[nH]c(=O)n3Cc3ccccc3)n2C)s1,/,/,100.0,i,1.09,/,/
CC(C)CC(C(=O)NC(C)(C)C)N(CC1CCCO1)C(=O)c1snc(C(N)=O)c1N (configuration not stated),-1.7,/,98.0,i,1.02,-133.3,110.8
CCc1ccc(/C=C2\SC(N3CCCC3)=NC2=O)cc1,-3.4,/,86.2,i,0.74,/,/
Cc1ccc(NC(=S)N=Nc2c(O)n(C)c3ccc(S(=O)(=O)N4CCOCC4)cc23)cc1,3.3,-1.1,101.5,i,0.99,-16.1,89.9
CC(=O)N(CCCN(C)C)Cc1ccccn1,/,/,103.4,i,1.05,/,/
Cc1ccc(S(=O)(=O)N(C)Cc2ccc(-c3nnco3)cc2)cc1,-14.0,-3.0,93.4,i,0.99,0.0,105.8
Cn1c(=O)c2c(nc(SCC(=O)NCC3CCCO3)n2Cc2ccc(F)cc2)n(C)c1=O (configuration not stated),-13.4,/,99.1,i,1.12,0.0,110.6
C=CCc1ccccc1OCC(O)CNC (configuration not stated),-14.8,-2.6,106.4,i,1.03,6.1,103.1
CCOC(=O)N1CCN(C(=O)CCC(=O)N2CCOc3ccc(C)cc32)CC1,-9.9,-1.9,98.9,i,0.907,/,/
CCOC(=O)C1=C(C)NC(=O)NC1c1c(OCC(=O)N2CCCCC2)ccc2ccccc12 (configuration not stated),10.0,-0.1,109.7,i,0.79,18.2,150.6
CS(=O)(=O)N(CC(=O)NCc1ccco1)c1cccc([N+](=O)[O-])c1,-1.8,/,98.6,i,1.16,/,/
CC(C)NC(=O)[C@@H]1C[C@@]1(C)[C@@H](NC(=O)OCc1ccccc1)c1ccccc1,-6.0,-0.8,95.0,i,1.05,-55.0,99.4
COCCN1C=C(C(=O)OC)C(c2cc3c(cc2Br)OCO3)C(C(=O)OC)=C1,3.7,2.1,100.0,i,0.92,-18.4,131.9
Cc1cccc(NC(=S)N(CCN2CCOCC2)Cc2cc3cc4c(cc3[nH]c2=O)OCO4)c1,-1.4,/,100.0,i,0.84,/,/
COc1ccc(C(=O)Cc2ccc(F)cc2)c(OC)c1,-5.0,-1.4,108.8,i,0.99,-16.7,133.3
C/C(=N\NC(=S)NCCc1ccccc1)c1cccs1,-4.5,-0.6,61.7,i,1.19,45.2,51.4
C=C(C)C(=O)Nc1cccc(C2=NOC3(C2)C[C@H](C(N)=O)N(C(=O)CC#N)C3)c1 (some centres not stated),/,/,101.2,i,0.89,/,/
CC1(OC(=O)CCc2ccccc2)C(=O)C=C2C=C(c3ccc(C#N)cc3)N(CC3CC3)C=C2C1=O (configuration not stated),/,/,91.5,i,0.9,/,/

# Screens: PubChem BioAssay, several laboratories
